HCMV UL50-53 inh: inhibitors of HCMV UL50-UL53 interaction, biochemical, HTRF | HCMV UL50-UL53 nuclear egress complex (human cytomegalovirus) | normalized percent inhibition | inhibition, % (test concentration not listed) | actives 0.15% (n = 190,000) | AID 1918969, 2023;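 active = both replicates at 50% or more, plus weaker picks with an unusually low signal ratio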;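 note: stock transfer was 100 nL into about 20 µL; 0% = negative control wells and 100% = wells with untagged competitor protein; inactives centre near -12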
Sa growth 42C: S. aureus growth inhibition at 42 and 30 °C, primary screen, LtaS inhibitor project, RN4220, two temperatures. OD600, 20 h, 42 °C; active compounds read low. AID 720641, 2013. relative growth, % (no concentration beside the values). actives 0.53% (n = 170,000);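 active = growth at 42 °C up to 50% and 20 or more points under that at 30 °C, or under 10% at both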;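 note: 300 nL library stock went into each well; scaled to the means of positive and negative controls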
GIV Gai3 FP: inhibitors of GIV peptide binding to Galpha-i3, primary screen, biochemical, fluorescence polarization, FITC-GIV GBA peptide, rat Galphai3. Guanine nucleotide-binding protein G(i) subunit alpha-3 (Rattus norvegicus), P08753. 90 min; active compounds read low; scaled: aluminum fluoride 0%, vehicle 100%. percent of control (FP), % (no concentration beside the values). actives 0.42% (n = 210,000). AID 1224905, 2016;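 active = replicate mean at 85% of control or lower, very high polarization wells dropped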;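 note: wells of about 15 µL received 100 nL stock; the first replicate is given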
Target sequence (P08753 whole entry, looked up): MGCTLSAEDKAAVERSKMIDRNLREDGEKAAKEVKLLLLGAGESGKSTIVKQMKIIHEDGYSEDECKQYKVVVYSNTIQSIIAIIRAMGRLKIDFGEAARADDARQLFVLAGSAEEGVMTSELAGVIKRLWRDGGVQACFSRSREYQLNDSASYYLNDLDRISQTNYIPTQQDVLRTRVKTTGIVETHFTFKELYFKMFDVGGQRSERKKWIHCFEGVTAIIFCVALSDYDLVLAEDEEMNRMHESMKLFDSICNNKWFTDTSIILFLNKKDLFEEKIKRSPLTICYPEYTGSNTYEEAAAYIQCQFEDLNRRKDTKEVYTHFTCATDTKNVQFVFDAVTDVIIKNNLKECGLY
Sa growth 42C second temp: second read-out of Sa growth 42C, no call of its own (marks repeat the call); relative growth, %; measured here: growth at 30 °C;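 optical density after 20 h as mean of two plates; 100% = untreated growth and lower means inhibition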
Numbers without * were called inactive; nt = not tested or not shown.

SMILES	HCMV UL50-53 inh	Sa growth 42C	Sa growth 42C second temp	GIV Gai3 FP
CCC(=O)Nc1ccc2nc(SCC(=O)Nc3ccccc3C(=O)OC)sc2c1	10.6	nt	nt	107.2
CCOc1ccc2nc(NC(=O)CS(=O)(=O)c3ccc(Cl)cc3)sc2c1	nt	129.5	91.4	101.1
Cc1ccc(OC(C)C(=O)Nc2noc(-c3ccc(Cl)cc3)n2)cc1C (stereo not drawn)	-6.5	nt	nt	101.9
CCOc1cc(/C=C2\NC(=S)N(c3ccc(OC)cc3)C2=O)ccc1OCC(=O)O	-62.9	nt	nt	107.6
Cc1ccc2nc3n(c(=O)c2c1)CC(O)=C3C#N	-5.0	100.2	80.1	nt
CCCn1c2ccccc2c2cnn(CC(=O)NCc3cc(OC)ccc3OC)c(=O)c21	nt	102.9	100.0	100.4
Cc1cc(C)c(/C=C2\SC(=S)N(CC(=O)O)C2=O)c(C)c1	-10.4	nt	nt	105.8
N#Cc1c(NC(=O)CC(c2ccccc2)c2ccccc2)oc(-c2ccco2)c1-c1ccco1	-9.2	113.8	86.1	nt
COc1cc2c(C#N)c(N3CCN(S(=O)(=O)c4ccccc4C(F)(F)F)CC3)nc(N)c2c(N)n1	-27.9	97.0	74.8	nt
CCOC(=O)CSc1nc(-c2ccccc2)ns1	-47.8	98.9	86.2	102.4
c1ccc(-c2cccc(-c3ccccc3)n2)cc1	-14.5	77.7	85.0	98.7
CC(C)CN(CC(C)C)c1nnc(NC(=O)c2cc(-c3ccc(Br)cc3)on2)s1	-14.5	86.2	75.4	96.4
COc1cccc(C(=O)NC(C)C2CC3CCC2C3)c1OC (stereo not drawn)	7.8	92.8	100.3	nt
COc1cc2c(cc1OC)C1=C(C#N)CN(CC(=O)O)CN1CC2	nt	107.6	71.1	98.2
O=C1CN(C(=O)CCN2CCOCC2)C(c2ccccc2)c2cc(Br)ccc2N1 (stereo not drawn)	4.5	103.0	92.8	105.4
O=C(CC1NC(=O)NC1=O)Nc1ccccc1 (stereo not drawn)	-15.9	102.3	89.2	104.3
O=C(CN1C(=O)C2CCCCN2c2ccc(C(=O)N3CCCC3)cc21)NCc1ccccc1 (stereo not drawn)	nt	98.7	92.3	101.3
O=C(O)CCCC(=O)n1cnc2ccccc21	-2.2	77.0	90.5	105.4
O=C(Cc1noc2ccccc12)Nc1ccc(Cl)cc1	-8.6	109.0	91.3	104.1
Cc1cccc(CCNC(=O)C2CCCN(S(=O)(=O)c3ccc4c(c3)oc(=O)n4C)C2)c1 (stereo not drawn)	-35.4	111.8	88.7	103.6
Cc1ccc(OCC(O)CNC2Cc3ccccc3C2)cc1C (stereo not drawn)	-12.4	82.8	88.7	103.9
COc1ccccc1C1=NS(=O)(=O)N(C)C(C(=O)Nc2ccn(Cc3ccc(C)cc3)n2)=C1	-14.4	nt	nt	100.4
Cc1ccccc1CNC(=O)CCSCc1cnn(-c2ccccc2)c1-n1cccc1	-11.9	89.8	85.2	99.5
NC(=O)C(c1ccccc1)c1ccccc1	-16.4	101.8	99.9	98.0
COc1ccc(CCNC(=O)CCc2c(C)nc3cc(-c4ccc(Cl)cc4)nn3c2C)c(OC)c1	26.0	97.4	103.7	112.6
CN1CCN(C(=O)CN2C(=O)C3CCCCN3c3ccc(C(=O)N(C)C)cc32)CC1 (stereo not drawn)	-15.5	nt	nt	101.2
O=C(Nc1ccccc1C(=O)Nc1ccc2c(c1)OCCO2)c1ccco1	-58.6	90.8	86.9	106.2
O=C(CC1Nc2ccccc2OC1=O)Nc1ccccc1 (stereo not drawn)	-6.3	nt	nt	95.3
O=C(CNC(=O)c1ccccc1)Nc1ccccc1	-1.1	103.8	83.4	104.0
CC(CC(=O)Nc1ccc(F)cc1)N1CCCC1 (stereo not drawn)	-3.1	nt	nt	98.6
COc1ccc(NC(C)=O)cc1NC(=O)C1(c2cccs2)CCOCC1	nt	96.1	84.5	110.4
Cc1c(C)n(CC(O)CNC(CO)(CO)CO)c2ccccc12 (stereo not drawn)	-21.4	96.2	85.4	105.3
O=C(CNc1cc(C(F)(F)F)cc(C(F)(F)F)c1)c1cc2cc(Cl)ccc2o1	10.6	79.9	88.0	100.6
O=C1CSC(=O)N1CCc1ccccc1	-13.1	92.4	82.4	101.4
O=C(O)c1ccc(Nc2nc(-c3ccc(Cl)c(Cl)c3)cs2)cc1	-24.2	61.4	26.6	nt
CCc1ccc(OCC(=O)NCc2csc(-c3ccc(OC)cc3)n2)cc1	8.9	nt	nt	105.7
CCOC(=O)c1cnc(SCC(=O)Nc2cc(C)cc(C)c2)nc1N	-12.0	nt	nt	102.5
CCc1cc2c(=O)c(-c3nc4ccccc4s3)coc2cc1OC(C)=O	nt	97.8	81.6	100.7
COCCN(Cc1nc2ccccc2c(=O)[nH]1)C(=O)c1ccc(C)cc1C	9.6	122.8	96.6	nt
CC(C)CSCC1OC(n2cnc3c(N)ncnc32)C(O)C1O (stereo not drawn)	-13.7	87.7	81.8	nt
CCCCN(CC)CCNC(=O)Cn1cnc2sc(C)c(S(=O)(=O)N3CCN(c4ccccc4OC)CC3)c2c1=O	-16.6	99.2	88.1	105.5
CCC(N)C12CC3CC(CC(C3)C1)C2 (stereo not drawn)	3.0	101.5	91.9	nt
CN1/C(=C2\C=NN(C)P2(=O)Nc2ccccc2)C(C)(C)c2ccccc21 (stereo not drawn)	-30.1	103.2	92.1	nt
CCOC(=S)SCc1cc(Br)cc(Br)c1	4.6	92.5	93.7	101.1
Brc1ccc2noc(-c3ccccc3)c2c1	-35.1	82.1	80.9	nt
CCn1ccc2c(OCC(=O)Nc3ccc(OC)cc3OC)cccc2c1=O	nt	73.4	91.4	98.2
CCc1nnc(NC(=O)C(C)N2C(=O)C3C4C=CC(C4)C3C2=O)s1 (stereo not drawn)	nt	100.5	99.0	100.7
COc1ccc(CC(=O)n2[nH]c(=O)cc(C)c2=O)cc1OC	-23.2	88.4	83.3	99.5
CC1(C)Cc2cccc(C(=O)NCc3cccs3)c2O1	2.4	102.3	103.4	100.7
COc1ccc(CNC(=O)c2cc3c(s2)CN(Cc2ccccc2)C3)cc1	nt	101.3	82.1	104.5
O=c1c2c(nc3nc(Cc4ccc(Cl)cc4)[nH]n13)CCCC2	5.5	nt	nt	99.0
CC(=O)Nc1cccc(-c2nc3cc(C)ccc3o2)c1C	-18.4	90.9	82.9	96.6
O=C1c2ccccc2C(=O)N1N1C(=O)C2C3C=CC(C3)C2C1=O (stereo not drawn)	-15.6	101.7	99.0	105.1
Cc1cc(=O)[nH]c(N2CCN(Cc3ccc4c(c3)OCO4)CC2)n1	-20.5	nt	nt	95.7
COC(=O)c1c(NC(=S)NCCn2cc(Br)cn2)sc2c1CCC(C)C2 (stereo not drawn)	-12.6	93.1	85.9	102.1
Cc1ccn2c(Nc3ccc4c(c3)OCO4)c(-c3ccco3)nc2c1	0.6	96.8	92.3	101.2
COc1ccc(/C=C(\NC(=O)c2ccccc2)C(N)=O)cc1	-24.6	102.5	100.6	100.9
Cn1cccc1C(=O)OCC(=O)c1ccc2c(c1)OCCO2	-11.4	89.1	83.9	nt
COc1ccc(C2CC(=O)C3=C(C2)Nc2nnnn2C3c2cccnc2)cc1 (stereo not drawn)	-15.6	nt	nt	101.3
CN(C)C(=O)c1ccc2c(c1)nc(CN1CCN(C(=O)Nc3ccccc3)CC1)n2C	-21.9	nt	nt	101.3

(listing goes on)
SMILES	HCMV UL50-53 inh	Sa growth 42C	Sa growth 42C second temp	GIV Gai3 FP
CCOC(=O)c1cc(S(=O)(=O)NC(CC)c2cccs2)cn1C (stereo not drawn)	-19.7	75.8	90.8	106.6
CCNc1nc(NC(C)C)nc(NS(=O)(=O)c2ccc(N)cc2)n1	-18.6	nt	nt	95.1
NNC(=O)C12CCCC(CCC1)C2	-20.9	100.2	89.0	104.2
CCCCCN1C(C(=O)c2ccccc2)=C(NC(=O)c2ccccc2OC)c2ccccc2S1(=O)=O	-17.9	nt	nt	102.8
N#Cc1c(N2CCN(C(=S)NCc3ccccc3)CC2)nc(-c2ccco2)c2c1CCCC2	-12.4	96.8	86.0	106.7
COc1ccc(S(=O)(=O)N(CC(N)=O)Cc2ccccc2)cc1OC	-7.5	100.7	109.8	103.2
CC(=O)N1CCN(Cc2nc3ccc(Cl)cc3n2CCO)CC1	8.4	109.8	101.3	nt
COCC(=O)NCC(c1ccc(N(C)C)cc1)N1CCOCC1 (stereo not drawn)	-10.4	nt	nt	102.0
Nn1c(SCC(=O)Nc2ccccc2)nnc1C1CCCCC1	-20.9	103.6	83.2	104.2
O=C(Nc1ccc(Cl)c(-c2nc3ccccc3o2)c1)c1cccc2c(Cl)cccc12	-12.3	109.4	89.9	107.5
CC(=O)N1c2ccc(S(=O)(=O)N(C)C3CCCCC3)cc2CC1C (stereo not drawn)	-12.5	99.5	89.5	97.0
COc1ccc(-c2cn3c(C)c(C(=O)Nc4ccccc4)sc3n2)cc1	nt	105.7	95.1	112.5
COc1ccc2c(c1)C(=O)N(c1ccccc1OC)C(=O)C2(Cc1c(C)noc1C)Cc1c(C)noc1C	-18.0	66.8	91.1	nt
CN(C)c1ccc(N/C(N)=N/c2nc(C(F)(F)F)cc(C(F)(F)F)n2)cc1	nt	98.6	86.8	103.0
CCCCc1nnc(NC(=O)Nc2[nH]c(C)c(C(=O)OCC)c2C)s1	-23.9	nt	nt	95.4
Cc1ccc(S(=O)(=O)N2CCCN(C(=O)CN3CCOCC3)C2c2ccccc2)cc1 (stereo not drawn)	9.2	108.0	99.3	99.6
O=C(NCc1ccccc1)C(=O)NCC(c1cccs1)S(=O)(=O)c1ccccc1 (stereo not drawn)	nt	121.3	88.1	98.2
c1nc2n(n1)C1=C(CCCC1)C1(CCCCC1)N2	-36.0	102.6	46.3	nt
CCC(=O)Nc1cccc(OCc2cc(=O)n3cc(C)ccc3n2)c1	nt	89.1	84.1	94.2
COc1cccc(Nc2nc(N)nc(CN3CCCCC3)n2)c1	-14.5	93.5	90.0	102.5

Laid out differently: results already given
Value order: HCMV UL50-53 inh	Sa growth 42C	Sa growth 42C second temp	GIV Gai3 FP
> CCC(N)C12CC3CC(CC(C3)C1)C2 (stereo not drawn)
→ 3.0	101.5	91.9	nt
> CN1/C(=C2\C=NN(C)P2(=O)Nc2ccccc2)C(C)(C)c2ccccc21 (stereo not drawn)
→ -30.1	103.2	92.1	nt
> CCOC(=S)SCc1cc(Br)cc(Br)c1
→ 4.6	92.5	93.7	101.1
> Brc1ccc2noc(-c3ccccc3)c2c1
→ -35.1	82.1	80.9	nt
> CCn1ccc2c(OCC(=O)Nc3ccc(OC)cc3OC)cccc2c1=O
→ nt	73.4	91.4	98.2
> CCc1nnc(NC(=O)C(C)N2C(=O)C3C4C=CC(C4)C3C2=O)s1 (stereo not drawn)
→ nt	100.5	99.0	100.7
> COc1ccc(CC(=O)n2[nH]c(=O)cc(C)c2=O)cc1OC
→ -23.2	88.4	83.3	99.5

Next part
SMILES	HCMV UL50-53 inh	Sa growth 42C	Sa growth 42C second temp	GIV Gai3 FP
Nc1c(S(=O)(=O)c2cccs2)c2nc3ccccc3nc2n1Cc1cccs1	-23.4	102.4	85.8	98.9
COc1ccc(CN(Cc2ccco2)c2cnc(S(C)(=O)=O)nc2C(=O)Nc2ccc(C)c(Cl)c2)cc1	-33.5	96.3	84.7	99.6
Cc1noc(C)c1COC(=O)CSc1ncnc2sccc12	-8.1	93.8	96.3	nt
CC1=C(C(=O)OCc2ccccc2)C(c2cc3c(cc2Br)OCO3)NC(=O)N1 (stereo not drawn)	-12.9	nt	nt	105.2
O=C(Cn1ncn2c(cc3ccccc32)c1=O)N1CCN(C(=O)c2ccco2)CC1	-16.4	100.3	96.7	98.2
O=C(COC(=O)c1ccc(-n2cnnn2)cc1)Nc1cc(-c2ccccc2)nn1-c1ccccc1	-17.0	98.8	93.3	nt
CCC(=O)N(Cc1ccccc1)c1nc2nc(C)c(Cc3ccccc3)c(=O)n2[nH]1	-18.4	nt	nt	101.1
Cc1ccc(CNC(=O)c2ccc(Nc3nc4ccccc4n4nnnc34)cc2)cc1	-0.7	97.0	101.7	111.9
CCc1cc2c(=O)c(-c3nc4ccccc4s3)coc2c(CN(CC)CC)c1O	-14.1	99.4	84.8	104.4
O=C(Cc1ccc(NC(=O)N2CCSc3ncccc32)cc1)Nc1ccc(Br)cc1	10.6	nt	nt	98.1
CC1Cc2cc(/C=C3\N=C(c4ccccc4F)OC3=O)ccc2O1 (stereo not drawn)	nt	100.3	79.0	108.4
O=C(CN1C(=O)C2CCCC2=Nc2ccccc21)NC1CCc2ccccc21 (stereo not drawn)	-5.8	nt	nt	107.6
COc1ccc(OC)c(CNC(=O)c2ccccc2NC(=O)c2nsc3ccccc23)c1	nt	120.4	70.9	103.0
Cc1cccc(NC(=O)Cn2c(=O)n(CC3CCC(C(=O)NCCc4ccccc4)CC3)c(=O)c3ccccc32)c1C (stereo not drawn)	0.6	100.0	95.8	106.2
COc1cc2c(=O)n(Cc3ccccc3)c(=O)n(CC(=O)C(C)(C)C)c2cc1OC	-5.8	nt	nt	106.4

From PubChem BioAssay
